# PABP FP inh – PABP-poly(A) binding inhibition | 1% of 290,000 active | PABP-poly(A) RNA binding, fluorescence polarization | AID 2014 | inhibition, % at 35 µM;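 active = 50% or more with normal probe brightness, or confirmed in later tests; inconclusive = above 50% with abnormal brightness, or retests that disagree; inactive = below 50% or failed in later tests; about a fifth of its hits are not listed in these tables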;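 also: calls also rest on retests at 20 µM and on dose response follow-up; controls were probe without protein and protein plus probe with vehicle; some compounds called inactive have numbers as strong as hits; many hits fall short of the cut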
# Target sequence (P11940 whole entry, looked up): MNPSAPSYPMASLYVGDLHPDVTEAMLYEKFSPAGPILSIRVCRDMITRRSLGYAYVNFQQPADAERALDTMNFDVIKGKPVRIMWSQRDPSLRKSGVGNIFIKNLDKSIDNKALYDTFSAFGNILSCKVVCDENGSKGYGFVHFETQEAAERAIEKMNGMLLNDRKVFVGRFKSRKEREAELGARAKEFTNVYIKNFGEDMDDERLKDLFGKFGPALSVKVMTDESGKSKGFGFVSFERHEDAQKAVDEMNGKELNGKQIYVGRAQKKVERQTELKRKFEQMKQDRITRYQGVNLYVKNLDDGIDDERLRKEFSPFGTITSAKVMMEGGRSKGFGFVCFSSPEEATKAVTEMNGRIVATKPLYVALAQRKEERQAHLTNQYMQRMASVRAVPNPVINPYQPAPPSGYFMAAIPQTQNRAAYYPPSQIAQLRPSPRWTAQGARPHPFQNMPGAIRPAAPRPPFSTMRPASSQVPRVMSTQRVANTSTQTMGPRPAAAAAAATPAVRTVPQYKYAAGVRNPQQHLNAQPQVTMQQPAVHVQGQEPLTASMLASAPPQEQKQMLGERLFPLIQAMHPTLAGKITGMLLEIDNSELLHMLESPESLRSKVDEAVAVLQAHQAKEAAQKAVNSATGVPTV
# CSC inhib – cancer stem cell inhibition; AID 2717; inhibition, % at 7.5 µM; cancer stem cell-like cells viability, luminescence; 1.1% of 300,000 active;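 active = mean at 75% or more and at least half the replicates too; inconclusive = mean and replicates disagree; tested in HMLE shEcad cells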;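 also: 0% = median of negative and 100% = median of positive control wells; the first replicate is given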
# Rce1 inhib – blocks yeast Ras-converting enzyme | Q03530 | yeast membranes, quenched prenylated peptide cleavage fluorescence | calls only | 0.27% of 290,000 active | AID 2563;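 active = fall in fluorescence gain of 50% or more versus controls, with final raw signal at or below 3038400; inconclusive = same 50% fall but final raw signal above 3038400; inactive = fall in fluorescence gain under 50%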;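 also: plate controls were neutral control wells for no effect and wells lacking membranes for full effect; tested at 10 µM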
# eIF4H inh – inhibitors of RNA binding by human eIF4H | eIF4H fluorescence polarization binding assay | inhibition, % at 35 µM | Q15056 | 0.94% of 290,000 active | AID 2012;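 active = 50% or more with normal probe brightness, or confirmed in later tests; inconclusive = above 50% with abnormal brightness, or retests that disagree; inactive = below 50% or failed in later tests; about a fifth of its hits are not listed in these tables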;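 also: calls also rest on retests at 20 µM and on dose response follow-up; 0% = protein and probe with vehicle and 100% = probe without protein; strong numbers were not always called active; many hits fall short of the cut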
# Env fusion inh – inhibitors of HIV Env-mediated cell fusion; inhibition, % at 12.3 µM; 1.1% of 360,000 active; HeLa-JRFL Env/CEM21 cell fusion, luciferase;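 active = mean replicate inhibition score of at least 50 and every replicate individually at or above 50; inconclusive = only one of the two criteria met; inactive = mean below 50 and not all replicates reaching 50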;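 also: 0% = plate neutral controls and 100% = maraviroc near 300 nM; one replicate is shown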
# UUG fidelity – alters start codon recognition fidelity in yeast; S. cerevisiae UUG-firefly luciferase reporter, luminescence/redox ratio; activity score, % at 18.7 µM; 0.13% of 350,000 active; AID 602363;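 active = replicate mean at a twofold rise or more, about +100% in these data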;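 also: firefly luciferase made from a UUG start codon reports start codon fidelity; reporter light over untreated wells divided by growth signal over untreated wells; some hits fall short of that in this replicate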
# MT1-MMP act inh – MT1-MMP (human) activation inhibition. P50281. HT1080 RFP-PRO-GFP cells, GFP/RFP ratio fluorescence, overnight; percent of plate control window, DMSO zero. GFP/RFP ratio change, % at 20 µM. 0.061% of 360,000 active;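 active = GFP/RFP ratio change of at least 30% with cell ATP level not reduced by more than half and red fluorescence within 50% of control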; also: strong numbers were not always called active
#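 Assay system: HT1080 RFP-PRO-GFP cells | Dosing: 20 µM single dose, 1% DMSO | Incubation: Cells overnight before dosing, compound overnight, 37 °C, 5% CO2 | Evaluation: GFP/RFP fluorescence ratio | Control set: DMSO-only wells and HT1080 RFP-L50D-GFP cell wells as references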
# eIF4H inh retest – recorded beside eIF4H inh, whose call it bears; inhibition, %; compound at 20 µM; confirmation average;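 mean of two retest wells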
# PABP FP inh retest – also measured in PABP FP inh; calls as there; inhibition, %; compound at 20 µM; confirmation repeats;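 mean of two retest wells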
# MT1-MMP act inh RFP – also measured in MT1-MMP act inh; calls as there; RFP signal change, %; measured here: RFP expression control read;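 0 = vehicle wells; hits needed this value within 50% of zero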
# Active calls of the source: *; i = inactive; ? = inconclusive; nt = not tested or not shown. Random draw from the library; any-hit rate near 2.9%.
SMILES,PABP FP inh,CSC inhib,Rce1 inhib,eIF4H inh,Env fusion inh,UUG fidelity,MT1-MMP act inh,MT1-MMP act inh RFP,others
Cc1ccc(C(CC(=O)O)Nc2nc(N3CCCCC3)nc(N3CCCCC3)n2)cc1 (stereo unspecified),-7,12,i,-7,nt,nt,1,-3,
Cc1ccc(-n2cnc(N)c2C(=O)c2cccc([N+](=O)[O-])c2)cc1,-3,-9,i,5,17,-21,-8,-3,
CC1CN(C(=O)c2ccc(CNS(=O)(=O)c3cccc(Cl)c3)cc2)CC(C)O1 (stereo unspecified),2,nt,i,0,-28,-3,-1,-1,
O=C(COc1ccccc1-c1ccccc1)NN=C1CCCC1,?,-18,nt,12,-1,nt,1,-3,
O=c1cc(CN2CCCC2)c2c(ccc3ccccc32)o1,nt,nt,nt,nt,22,-23,-1,3,
CCSc1ncc(Cl)c(C(=O)N(Cc2ccc(N(C)C)cc2)C2CCS(=O)(=O)C2)n1 (stereo unspecified),8,nt,i,-9,nt,2,-1,-2,
O=C(c1cc(-c2cccc(O)c2)on1)N1CCOCC1,-14,-1,i,5,-39,-66,3,4,
O=S(=O)(Nc1cccc(F)c1)c1ccc(S(=O)(=O)N2CCOCC2)cc1,nt,nt,nt,nt,2,-14,-5,4,
Cc1cc(-c2nn3c(C)nnc3s2)ccc1NC(=O)C(C)(C)C,nt,-4,i,nt,-30,-33,4,5,
Cc1c(S(=O)(=O)N2CCCCC2)c(=O)n(C)c(=O)n1C,nt,-2,i,nt,4,nt,0,1,
COc1cc(C)c(NC(=S)NCCCN2CCOCC2)cc1OC,-4,-9,i,-6,14,-8,1,3,
O=C(CCc1ccccc1)NC(=S)Nc1cccc(C(=O)O)c1,-11,1,i,-13,9,-25,0,4,
CC1Oc2ccccc2C=C1/C=N/Nc1ccc(C(=O)O)cc1 (stereo unspecified),-8,-23,i,-2,-151,-35,-2,1,
NS(=O)(=O)c1ccc(Sc2ccc3c(c2)CCC3)nc1,-5,10,i,-6,21,-3,4,4,
CC1(C(=O)Nc2cccc(OC(F)(F)F)c2)Cc2c(-c3ccc(C(N)=O)cc3)ccnc2O1 (stereo unspecified),nt,nt,nt,nt,-1,-14,-3,-6,
CN(C)c1ccnc2sc3c(NCC(O)CO)ncnc3c12 (stereo unspecified),-13,-3,i,-7,-47,nt,0,4,
O=C(O)c1cccnc1SC1CC(=O)N(c2cccc(C(F)(F)F)c2)C1=O (stereo unspecified),7,-3,i,-5,0,-13,2,1,
COc1ccc(-c2csc(NC(=O)c3ccc(OCC(=O)N4CCOCC4)c(OC)c3)n2)cc1OC,-6,24,i,-7,16,nt,0,-12,
CC(C)C[C@H](NC(=O)NC1CCCc2ccccc21)C(=O)O (stereo partly specified),4,0,i,-5,12,0,7,6,
CC(=O)N1CCc2c(sc(NC(=O)C3CCCN3S(=O)(=O)c3cccs3)c2C#N)C1 (stereo unspecified),nt,-7,i,nt,0,0,-3,-8,
Cc1cc(O)ccc1NC(=O)CCN1C(=O)c2ccc([N+](=O)[O-])cc2C1=O,-5,-25,i,2,15,nt,-1,0,
O=C(NN1C(=O)/C(=C/c2cccs2)SC1=S)c1ccncc1,-1,-7,i,-8,-7,nt,1,5,
Cc1ccc(CN2CCSCC2)c(C)c1,-1,-4,i,9,9,nt,-1,3,
COc1ccc([N+](=O)[O-])cc1NC(=O)C(C)N1CCN(C(=O)c2ccco2)CC1 (stereo unspecified),-4,2,i,0,8,-7,5,3,
CC(C)c1ccc(CNc2cc(N3CCCC3)ccc2[N+](=O)[O-])cc1,-7,nt,i,0,nt,-6,2,-7,

# Additional structures follow.
SMILES,PABP FP inh,CSC inhib,Rce1 inhib,eIF4H inh,Env fusion inh,UUG fidelity,MT1-MMP act inh,MT1-MMP act inh RFP,others
O=C1/C(=C\c2ccncc2)SC(=S)N1C1CCCCC1,8,11,i,-2,27,nt,-6,-5,
CCC(=O)Nc1cccc(Oc2nc(C)cc(C)c2C#N)c1,-2,-11,i,1,2,-20,1,1,
CCOc1ccc(-n2c(SCC(=O)Nc3cc(C)on3)nc3c([nH]c4ccccc43)c2=O)cc1,4,-11,i,7,-6,-14,-6,-4,
O=C1C(c2ccccc2)=[N+]([O-])c2ccccc21,nt,82*,i,nt,-6,-2,1,2,
O=C(Cc1cccc(F)c1)N1CCOCC1,nt,nt,nt,nt,-1,-4,-3,3,
C=COCCNC(=O)C(=O)NC(C)C,-4,-7,i,-2,-54,-1,2,1,
O=C(NC1CCc2ccccc21)c1cc(COc2ccc(F)cc2F)on1 (stereo unspecified),9,-17,i,5,-11,nt,2,-1,
COc1ccc(N2CC(C)Cn3c2nc2c3c(=O)[nH]c(=O)n2C)cc1 (stereo unspecified),-9,nt,i,-1,nt,-5,2,2,
O=C(COc1ccc(C(=S)N2CCOCC2)cc1)N1CCCC1,16,-3,i,-14,-27,nt,2,4,
Cn1c(Cn2c(=O)sc3ccccc32)nnc1SCC(=O)Nc1ccccc1,-6,-13,i,-3,8,-11,3,5,
CC(C)C1Cc2c(sc3c2c(=O)n(Cc2ccccc2)c2nncn32)CO1 (stereo unspecified),9,-18,i,2,nt,nt,7,-4,
CCCn1c(N)c(C(=S)NC(=O)C2CC2)c(=O)n(C)c1=O,-6,nt,nt,2,nt,nt,-3,1,
O=C(Nc1ccc(N2CCN(Cc3ccccc3F)CC2)cc1)c1ccccc1[N+](=O)[O-],3,1,i,-7,1,nt,0,-4,
CC(=O)N1c2c(cc(Br)cc2S(=O)(=O)NCc2cccnc2)CC1C (stereo unspecified),4,-6,i,2,-71,-20,-1,4,
COc1ccc(NC(C)=O)cc1NC(=O)c1cccc(S(=O)(=O)N2CCN(Cc3ccccc3)CC2)c1,nt,6,nt,nt,0,-16,3,0,
Brc1cnc(N2CCOCC2)nc1N1CCCCC1,13,12,i,-4,-59,7,2,0,
O=C(CSc1nnc(-c2ccncc2)n1CCc1ccccc1)NCc1ccccc1,7,-12,i,-6,-12,4,0,1,
CC(c1ccccc1)n1ccnc1CO (stereo unspecified),nt,nt,nt,nt,-8,-21,4,3,
CCn1c(=O)cc(OCC(=O)Nc2cccnc2)c2ccccc21,-2,-11,i,12,-10,-19,7,5,
O=C(O)c1nc(NCCc2ccccc2)ncc1Cl,3,nt,i,-2,23,-4,0,3,
CC(C)c1ccc(C2CC(=O)N3CN(Cc4ccco4)CSC3=C2C#N)cc1 (stereo unspecified),19,-1,i,14,18,-17,-2,1,
CSc1cccc(NC(=O)Nc2ccccc2C(N)=O)c1,9,5,i,-16,8,-6,-2,-2,
CCC(c1nnnn1CCc1ccccc1)N(Cc1ccco1)Cc1cc2cc(C)cc(C)c2[nH]c1=O (stereo unspecified),11,16,i,5,nt,-12,-2,-2,
COc1ccc(-c2nnc(SCC(=O)N3CCCC(C)C3)o2)c(OC)c1 (stereo unspecified),-11,-10,i,-2,nt,nt,4,2,
O=C(c1ccccc1)c1cc2c(cc1[N+](=O)[O-])OCCO2,5,-7,i,-11,-61,nt,4,5,

# Following part
SMILES,PABP FP inh,CSC inhib,Rce1 inhib,eIF4H inh,Env fusion inh,UUG fidelity,MT1-MMP act inh,MT1-MMP act inh RFP,others
COc1cccc(COc2ccc3ccc(=O)oc3c2)c1,10,4,i,-5,-86,2,-8,2,
CC(c1ccccc1)N1C(=O)C2C3CCC(C3)C2C1=O (stereo unspecified),63,1,i,-2,12,-9,4,4,eIF4H inh retest=-7;PABP FP inh retest=2
COc1cc2c(cc1OC)C(c1ccc(-c3ccc(Cl)cc3Cl)o1)=NCC2,12,5,i,2,98*,-10,-2,-19,
CC(C)NC(=O)Cn1c(=O)n(CC(=O)N2CCCCC2)c(=O)c2sccc21,-4,-26,i,5,-2,-21,-4,-1,
C=C1CCC2[C@](C)(CO)[C@H](O)CC[C@@]2(C)[C@@H]1/C=C/C1=CCOC1=O (stereo partly specified),nt,-8,i,nt,nt,-7,-4,-14,
CCOC(=O)C1CCN(S(=O)(=O)c2ccc3c(c2)CC(=O)N3C)CC1,31,-3,i,-5,-5,-10,0,10,
N#C/C(=C\c1ccc(Br)s1)C(=O)N1CCN(c2ccccc2)CC1,-1,-10,i,6,15,-4,-7,3,
O=C(NC(CC(=O)N1CCCC(C(F)(F)F)C1)c1ccccc1)c1ccccc1Cl (stereo unspecified),12,-11,i,-3,-2,1,1,1,
O=c1onc(-c2ccccc2)c2ccccc12,nt,8,i,nt,13,-20,-3,-1,
O=c1[nH]nc(-c2ccc(OCc3ccc(Cl)cc3Cl)cc2)o1,0,-10,i,-7,-3,-1,-1,-3,
Cc1ccc(CSCC(=O)Nc2ccc(F)cc2)cc1,0,5,i,-11,-6,-2,1,4,
CCCN(C(=O)c1ccc2c(SCC(=O)O)c3c(nc2c1)CCC3)c1cccc(C)c1,14,-17,i,0,7,-28,-3,4,
O=C1Nc2ccccc2/C1=N\N1CCOCC1,2,0,i,-3,22,-7,2,4,
Cc1ccc(-n2nc3c(c2NC(=O)c2cccs2)CS(=O)(=O)C3)c(C)c1,-6,-7,i,3,-1,-2,1,2,
O=C(NCC1CCCO1)c1cccnc1NCc1ccc(F)cc1 (stereo unspecified),7,nt,i,0,17,-19,-4,-3,
COc1ccc(Nc2nc(C)cc(C)c2C#N)cc1,-14,14,i,4,nt,-19,-5,0,

# Grouped by structure, the entries above containing two or more sulfur atoms.
SMILES,PABP FP inh,CSC inhib,Rce1 inhib,eIF4H inh,Env fusion inh,UUG fidelity,MT1-MMP act inh,MT1-MMP act inh RFP,others
CCSc1ncc(Cl)c(C(=O)N(Cc2ccc(N(C)C)cc2)C2CCS(=O)(=O)C2)n1 (stereo unspecified),8,nt,i,-9,nt,2,-1,-2,
O=S(=O)(Nc1cccc(F)c1)c1ccc(S(=O)(=O)N2CCOCC2)cc1,nt,nt,nt,nt,2,-14,-5,4,
NS(=O)(=O)c1ccc(Sc2ccc3c(c2)CCC3)nc1,-5,10,i,-6,21,-3,4,4,
CC(=O)N1CCc2c(sc(NC(=O)C3CCCN3S(=O)(=O)c3cccs3)c2C#N)C1 (stereo unspecified),nt,-7,i,nt,0,0,-3,-8,
O=C(NN1C(=O)/C(=C/c2cccs2)SC1=S)c1ccncc1,-1,-7,i,-8,-7,nt,1,5,
O=C1/C(=C\c2ccncc2)SC(=S)N1C1CCCCC1,8,11,i,-2,27,nt,-6,-5,
Cn1c(Cn2c(=O)sc3ccccc32)nnc1SCC(=O)Nc1ccccc1,-6,-13,i,-3,8,-11,3,5,
Cc1ccc(-n2nc3c(c2NC(=O)c2cccs2)CS(=O)(=O)C3)c(C)c1,-6,-7,i,3,-1,-2,1,2,

# Screening results as filed in PubChem BioAssay.
